Compound activity deposited in PubChem BioAssay by National Center for Advancing Translational Sciences (NCATS).
PMP22 txn: modulates PMP22 transcription in S16 Schwann cells; 2% of 43,000 active; AID 1508649; Potency, µM (titrated, usually from 57.5 µM), without a hit: at the top dose activity change, negative = inhibition, usual class: inhibitors; S16 Pmp22-F2sN Schwann cells (luciferase reporters placed in the Pmp22 gene), FLuc/NLuc coincidence luminescence, 24 h; active = clear falling dose curves in both reporters; inconclusive = both reporters move, but less clearly or upward; inactive = either reporter flat; the % is the NLuc reporter signal; further: on the % scale 0 is the no-effect control and ±100 the full control effect; some results filed as inactive show a strong effect at the top dose
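Rat S16 Pmp22-F2sN cells, 500-1,000/well in phenol red-free DMEM + 10% FBS, compound-treated 24 h (37C, 5% CO2). Luminescence: FLuc read, Stop&Glo added, NLuc read.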
HTT promoter inh: inhibits huntingtin promoter activity; 0.93% of 48,000 active; Potency, µM (top dose mostly 57.5 µM), for inactives: at the highest dose activity change, negative = inhibition, usual class: inhibitors; AID 1508623; HEK293 HTT promoter firefly luciferase reporter (activity 0% = vehicle and -100% = no light), 24 h; active means well fitted inhibition curve with a large enough effect; inconclusive means small, poorly fitted or top-dose-only effect; inactive means no such curve, though single readings can be large or run the other way; further: nearly all actives have a fitted effect of over 50% in size
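Quantitative HTS used concentration series of up to 57.5 uM final on HEK293 luciferase reporter cells, 24 h at 37 degrees C. Readout was Dual-Glo firefly luminescence.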
An asterisk follows results filed as active; ? = inconclusive; / = no result given; & = joins results of further samples; [ ] = remark or other dose. Potency means the concentration at half of the fitted maximal effect. Random draw from the library (roughly 2.6% active in at least one column).

SMILES | PMP22 txn | HTT promoter inh
Cc1ccc(Nc2nc3nonc3nc2Nc2cccc(C(F)(F)F)c2)cc1Cl | 7.61µM* | 1.26µM*
O=C(Cn1c(=O)nc(-c2ccccc2)c2ccccc21)Nc1ccc(Cl)cc1F | -15.3% | ?
CCN(CC)CCNC(=O)CSc1nc2nc(C)c(Cc3ccccc3)c(C)n2n1 | 12.4% | -6.6%
O=C(CSc1ccc(-c2ccccn2)nn1)Nc1ccc(F)cc1F | -24.0% | -8.1%
COc1ccccc1CNC(=O)C1CCN(Cc2cc3ccccc3n2Cc2cccc(C)c2)CC1 | ? | -18.6%
CCOc1ccc(S(=O)(=O)N(CC(=O)Nc2ccc(OC)cc2OC)c2ccccc2)cc1 | -26.8% | -0.1%
COc1ccc(N2CCN(c3ncnc4c3cnn4-c3ccc(F)cc3)CC2)cc1 | -10.5% | -3.5%
Cc1ccc(CN(C(=O)COc2ccc(Cl)c(C)c2)c2ccccn2)o1 | -1.2% | -20.5%
Cc1ccc(C)c(CSc2ccc3nnc(CCNS(=O)(=O)c4ccccc4)n3n2)c1 | -5.9% | -12.4%
Cc1ccc(-c2c(C(=O)NCc3ccc(F)cc3)oc(=O)c3ccccc23)cc1 | -6.4% | -11.4%
NCCCC(N)CC(=O)NCC1NC(=O)C(CO)NC(=O)C(N)CNC(=O)C(C2CCN=C(N)N2)NC(=O)C(=CNC(N)=O)NC1=O (centres undefined) | / | 3.1%[0.739 µM]
CCOc1ccc(NC(=O)CSc2oc(-c3ccccc3)nc2S(=O)(=O)c2ccc(Cl)cc2)cc1 | 10µM* | 1.6%
COc1ccccc1CNC(=O)C1CCN(c2nc3ccc(Cl)cc3[nH]2)CC1 | 18.6% | 2.5%
Cc1noc(-c2ccc(N(C)Cc3ccccc3)c([N+](=O)[O-])c2)n1 | ? | -12.7%
CCn1cc(C(=O)NCCc2ccc(C)cc2)c(=O)c2cc(S(=O)(=O)N3CCc4ccccc4C3)ccc21 | -49.0% | -1.9%
Cc1ccccc1CN1C(=O)c2ccccc2Sc2ccc(C(=O)NCc3cccs3)cc21 | 4.5% | -25.3%
CCC(=O)N1CCc2cc(CNC(=O)Cc3ccc(F)cc3)ccc21 | -34.5% | 8.4%
O=C(O)c1ccc(C2Nc3ccccc3-c3nnc(SCc4ccc(Cl)cc4)nc3O2)cc1 (centres undefined) | 0.4% | 2.1%
Cc1cccc(OCC(=O)N(Cc2ccc(C(C)(C)C)cc2)Cc2ccco2)c1 | ? | ?
C=CCSCC1Nc2cc(Cl)c(S(N)(=O)=O)cc2S(=O)(=O)N1 (centres undefined) | / | -0.2%

Compounds shown so far containing sulfur (9):
SMILES | PMP22 txn | HTT promoter inh
CCN(CC)CCNC(=O)CSc1nc2nc(C)c(Cc3ccccc3)c(C)n2n1 | 12.4% | -6.6%
O=C(CSc1ccc(-c2ccccn2)nn1)Nc1ccc(F)cc1F | -24.0% | -8.1%
CCOc1ccc(S(=O)(=O)N(CC(=O)Nc2ccc(OC)cc2OC)c2ccccc2)cc1 | -26.8% | -0.1%
Cc1ccc(C)c(CSc2ccc3nnc(CCNS(=O)(=O)c4ccccc4)n3n2)c1 | -5.9% | -12.4%
CCOc1ccc(NC(=O)CSc2oc(-c3ccccc3)nc2S(=O)(=O)c2ccc(Cl)cc2)cc1 | 10µM* | 1.6%
CCn1cc(C(=O)NCCc2ccc(C)cc2)c(=O)c2cc(S(=O)(=O)N3CCc4ccccc4C3)ccc21 | -49.0% | -1.9%
Cc1ccccc1CN1C(=O)c2ccccc2Sc2ccc(C(=O)NCc3cccs3)cc21 | 4.5% | -25.3%
O=C(O)c1ccc(C2Nc3ccccc3-c3nnc(SCc4ccc(Cl)cc4)nc3O2)cc1 (centres undefined) | 0.4% | 2.1%
C=CCSCC1Nc2cc(Cl)c(S(N)(=O)=O)cc2S(=O)(=O)N1 (centres undefined) | / | -0.2%

Going on with the list:
SMILES | PMP22 txn | HTT promoter inh
O=C(c1cccc(Cl)c1)n1nc(-c2ccco2)nc1NCc1cccs1 | ? | 24.2%
COc1ccc(OC)c(CCNC(=O)CCCn2c(=O)c3cccn3c3ccc(F)cc32)c1 | ? | -2.4%
O=C(Nc1ccc(Br)cc1F)c1cc2nc(-c3ccco3)cc(C(F)(F)Cl)n2n1 | -12.0% | 5.3%
Cc1cc(O)c2c(c1)C(=O)c1cc(O)cc(O)c1C2=O | / | 4.0%
COc1cccc(CNC(=O)CN2CCCN(Cc3ccccc3)S2(=O)=O)c1 | 2.8% | -9.3%
Cc1ccc2oc(-c3ccc(C)c(NC(=O)/C=C/c4ccc(Cl)cc4)c3)nc2c1 | -5.5% | 11.2%
O=C(NCc1cccc(Cl)c1)c1cnc(N2CCCCC2)c2ccccc12 | ? | -4.4%
Cc1ccc(OCC(=O)Nc2nnc(S(=O)(=O)N3CCc4ccccc43)s2)cc1 | -17.2% | -9.5%
O=C(NCc1ccc2c(c1)CCN2C(=O)c1ccc(F)cc1)c1ccc(Br)o1 | -21.6% | ?
CCN(CC)CCCNC(=O)C1CCN(S(C)(=O)=O)CC1 | -14.5% | -11.6%
O=C(NC1CCCCCC1)C1c2ccccc2C(=O)N1Cc1ccc(F)cc1 (centres undefined) | 6.0% | -5.0%
CCOC(=O)Cc1ccc(NC(=O)N(C(C)C)C2CCN(C(C)=O)CC2)cc1 | -5.6% | 3.8%
Cc1nc(SC(C)C(=O)Nc2ccccc2C)cc(-c2ccccc2)n1 (centres undefined) | 3.3% | -14.2%
COCCCN1CCC(NC(=O)c2cc(Cl)c(N)c3c2OCC3)CC1 | / | -0.9%&-1.3%
Cc1ccc(N2C(=O)NC(NS(=O)(=O)c3ccc(Cl)cc3)(C(F)(F)F)C2=O)cc1C (centres undefined) | -51.5% | -28.5%
Cc1ccc(C(=O)c2cn(Cc3ccccc3)c3nc(C)ccc3c2=O)cc1 | ? | -11.5%
COc1ccccc1NC(c1ccc(Cl)cc1)c1nnc(-c2cccc(F)c2)o1 (centres undefined) | -13.6% | -18.3%
Cc1ccc(CNc2ncnc3c2nnn3C)cc1 | -2.9% | 7.6%
Cc1ccc2nc(NCc3ccccc3Cl)c3nnnn3c2c1 | -8.2% | -5.4%
O=C(Cn1ccn(-c2cccc(Cl)c2)c(=O)c1=O)c1ccc(F)cc1 | -13.8% | -24.9%
Cc1cccc(NC(=O)C2CCCN(S(=O)(=O)c3cccc4nonc34)C2)c1 (centres undefined) | -15.5% | -3.6%
COc1ccc(CNC(=O)c2ccc3c(c2)N(Cc2ccccc2)CCS3)cc1 | -13.8% | ?
CCc1ccc(C2=CC(c3cccc(OC)c3OC)n3c(nc4ccccc43)N2)cc1 (centres undefined) | ? | -23.2%
Cc1cccc(CCNC(=O)c2sc3nc4n(c(=O)c3c2C)CCCC4)c1 | 6.8% | 40.1%[activator]
CCOc1ccc(NC(=O)CC(C)O)cc1 (centres undefined) | / | 12.9%
COc1ccc(NC(=O)CCCS(=O)(=O)c2nc(-c3ccccc3OC)cc(C(F)(F)F)n2)c(OC)c1 | -20.7% | 15.2%
CCOc1ccc(NC(=O)CSC2=Nc3ccccc3C3=NC(CC(=O)NCc4cccs4)C(=O)N23)cc1 (centres undefined) | -17.8% | -19.0%
COc1ccc(-c2[nH]c(-c3ccccc3)nc2SCC(=O)NC2CCCC2)cc1 | ? | -26.3%
C[C@]12C=CC(=O)C=C1[C@@H](F)C[C@@H]1[C@@H]2[C@@H](O)C[C@@]2(C)[C@H]1CC[C@]2(O)C(=O)CO | / | 3.3%
COC(=O)c1scc(-c2ccc(C)cc2)c1S(=O)(=O)N1CCN(c2cccc(Cl)c2)CC1 | -44.6% | ?

Two entries picked at random from those above, as already listed:
SMILES | PMP22 txn | HTT promoter inh
COc1cccc(CNC(=O)CN2CCCN(Cc3ccccc3)S2(=O)=O)c1 | 2.8% | -9.3%
COc1ccccc1CNC(=O)C1CCN(c2nc3ccc(Cl)cc3[nH]2)CC1 | 18.6% | 2.5%

(next part)
SMILES | PMP22 txn | HTT promoter inh
COc1cccc(CNC(=O)CCc2nc(-c3ccc(C)cc3)no2)c1 | 14.1% | -36.0%
CCOc1ccccc1NC(=O)Cn1c(=O)n(-c2ccccc2)c(=O)c2c1c1cc(C)ccc1n2C | -16.4% | -11.7%
Cc1cc(C)c2sc(N(Cc3cccnc3)C(=O)CCS(=O)(=O)c3ccccc3)nc2c1 | ? | 0.9%
COc1ccc(C(=O)CN2CCN(S(=O)(=O)c3ccc(C(C)C)cc3)CC2)cc1 | ? | ?
Cn1cc(-c2cc3n(n2)CCC(=O)N3CCCC(=O)NCc2ccc(Cl)cc2)c2ccccc21 | -11.3% | ?
Cc1ccc2c(Sc3ccccc3)c(C(=O)NCc3ccccc3F)[nH]c2c1 | -19.0% | 16.5%
CNC(=O)c1c(-c2ccc(F)cc2)oc2cc(N(CCO)S(C)(=O)=O)c(C3CC3)cc12 | / | -7.1%
CCCn1c(=O)n(-c2ccccc2Cl)c(=O)c2sc3ccccc3c21 | -11.8% | -9.0%
CCc1cccc(C)c1Nc1c(-c2cccc(O)c2)nc2sccn12 | ? | -9.6%
CN(CC1(C)CCCO1)S(=O)(=O)c1ccc(Cl)c(S(N)(=O)=O)c1 (centres undefined) | / | 7.9%
Cc1ccc(S(=O)(=O)c2cnc(SC(C)C(=O)Nc3ccccc3)[nH]c2=O)cc1 (centres undefined) | -16.9% | -5.9%
Cc1cc(Cl)ccc1NC(=O)CCn1nc(C)c2c(C)n(-c3ccccc3)nc2c1=O | -8.7% | -15.4%
CCC(=O)N1CCc2cc(Br)cc(S(=O)(=O)CCC(=O)Nc3ccc(Cl)cc3)c21 | 2.3% | -9.9%
COc1cccc(C(=O)Nc2nc(-c3ccc(Br)cc3)ns2)c1 | -37.0% | ?
O=C(Nc1ccc(C(F)(F)F)cc1)C1CCCN(S(=O)(=O)c2cccc3cccnc23)C1 (centres undefined) | 2.5% | ?
Cc1ccccc1CSc1nnc2[nH]c(=O)cc(-c3ccccc3)n12 | 10.7% | -6.9%
Cc1nn(CC(=O)NCc2ccc(Cl)cc2)c(=O)c2cc3sccc3n12 | -3.8% | -2.2%
Cc1ccc2c(c1)C(c1ccccc1)N(C(=O)c1ccc(S(=O)(=O)N3CCCCC3)cc1)CC(=O)N2 (centres undefined) | -28.1% | ?
CCCN1C(=O)c2[nH]nc(-c3ccc(OC)cc3)c2C1c1ccccn1 (centres undefined) | -20.0% | 0.5%
CCOC(=O)c1c(C)[nH]c(C)c1S(=O)(=O)N1CCCC(C(=O)Nc2ncccc2C)C1 (centres undefined) | 19.0% | 26.7%
CCCCNC(=O)c1ccc2c(c1)N(Cc1ccc(F)cc1)C(=O)c1ccccc1S2=O (centres undefined) | ? | -27.2%
Cc1ccc(NC(=O)CSc2ncc3c(n2)-c2ccccc2N(Cc2cccc(F)c2)S3(=O)=O)cc1F | ? | -24.8%
COc1ccc(NC(=O)CSc2nc3ccccc3n2CC(=O)N(C)c2ccc(F)cc2)cc1 | -59.8% | -29.9%
COc1ccc(NS(=O)(=O)c2ccc3c(c2)[C@H]2C=CC[C@H]2[C@@H](c2ccc(C(=O)O)cc2)N3)cc1 | -3.6% | -2.9%
CCOc1ccccc1-n1nnc(-c2nsc(NC(=O)c3ccc(C)cc3)n2)c1C | -27.8% | ?
Cc1cccc(-c2nnn3c2nc(NCCc2ccc(S(N)(=O)=O)cc2)c2ccccc23)c1 | -31.3% | ?
Cc1ccc(C(C)C)c(OCC(=O)N2CCC(c3nc4ccccc4o3)CC2)c1 | -44.3% | ?
COc1ccc(-c2nc(SCC(=O)NCC3CCCO3)c(-c3ccc(C)cc3)[nH]2)cc1OC (centres undefined) | -5.7% | 4.8%
COc1ccc(N2CCN(C(=O)c3cnn(-c4ccc(OC)cc4)c3C3CCN(C(=O)OC(C)(C)C)CC3)CC2)cc1 | 16.6% | -0.6%
Cc1cccc(CS(=O)(=O)CC2Nc3ccc(C(=O)NCc4ccccc4)cc3NC2=O)c1 (centres undefined) | ? | ?
COc1cccc(CNC(=O)c2cc3cccc4c3n2CC(C)S4)c1OC (centres undefined) | -19.8% | ?
CCc1ccc(C(=O)c2cn(CC(=O)Nc3ccc(OC)c(OC)c3)c3ccc(C)cc3c2=O)cc1 | 1.4% | -19.8%
COc1cccc(N2CCN(C(=O)CN3CCSc4ccc(S(=O)(=O)N(C)C)cc43)CC2)c1 | ? | -24.6%
CC(=O)c1ccc(Nc2ccc3cc(S(=O)(=O)N4CCCC4)ccc3n2)cc1 | -12.8% | 0.0%
Cc1ccccc1NC(=O)c1ccc(NC(=O)N2CCSc3ncccc32)cc1 | 18.3% | -7.4%
Cc1ccccc1NC(=O)Cn1c(=O)n(Cc2ccc3c(c2)OCO3)c(=O)c2ccccc21 | ? | -15.8%
Cc1ccc(C)c(Cn2cnc3ccccc3c2=O)c1 | -18.7% | -7.9%
CCCCNC(=O)c1ccc2c(c1)NC(=O)C(CS(=O)(=O)Cc1ccc(C)cc1)N2 (centres undefined) | -4.5% | -8.8%
O=C(NCCc1csc(-c2ccc(F)cc2)n1)c1cccc(F)c1 | ? | ?
CC(C)Oc1ccc(C(=O)N2CCN(c3nc4c(F)cc(F)cc4s3)CC2)cc1 | 8.8% | 1.9%
O=C1Nc2ccccc2Oc2cc(Oc3ccccc3)ccc21 | ? | -12.3%
CCOC(=O)c1c(C)n(-c2ccccc2)c2ccc(OC(=O)c3c(F)cccc3F)cc12 | -9.9% | -9.7%
CCOCCn1ccc2c(OCC(=O)Nc3cc(C)cc(C)c3)cccc2c1=O | ? | -13.3%
